From PubChem BioAssay
UUG fidelity: yeast start codon fidelity modulation; 350,000 tested, 0.13% active; activity score, % at 18.7 µM; S. cerevisiae UUG-firefly luciferase reporter, luminescence/redox ratio;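 active = replicate mean at a twofold rise or more, about +100% in these data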;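 also: firefly luciferase made from a UUG start codon reports start codon fidelity; reporter light over untreated wells divided by growth signal over untreated wells; some hits fall short of that in this replicate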
Env fusion inh: HIV envelope-mediated fusion inhibition; HeLa-JRFL Env/CEM21 cell fusion, luciferase; inhibition, % at 12.3 µM; 360,000 tested, 1.1% active; AID 651610;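 active = mean replicate inhibition score of at least 50 and every replicate individually at or above 50; inconclusive = only one of the two criteria met; inactive = mean below 50 and not all replicates reaching 50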;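 also: 0% = plate neutral controls and 100% = maraviroc near 300 nM; one replicate is shown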
CSC inhib: cancer stem cell inhibition; inhibition, % at 7.5 µM; cancer stem cell-like cells viability, luminescence; 300,000 tested, 1.1% active;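 active = mean at 75% or more and at least half the replicates too; inconclusive = mean and replicates disagree; tested in HMLE shEcad cells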;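 also: 0% = median of negative and 100% = median of positive control wells; the first replicate is given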
eIF4H FP inh: inhibitors of RNA binding by human eIF4H; inhibition, % at 35 µM; 290,000 tested, 0.94% active; eIF4H fluorescence polarization binding assay;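 active = 50% or more with normal probe brightness, or confirmed in later tests; inconclusive = above 50% with abnormal brightness, or retests that disagree; inactive = below 50% or failed in later tests; about a fifth of its hits are not listed in these tables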;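 also: calls also rest on retests at 20 µM and on dose response follow-up; 0% = protein and probe with vehicle and 100% = probe without protein; strong numbers were not always called active; many hits fall short of the cut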
Rce1 inh: blocks yeast Ras-converting enzyme. Q03530. AID 2563. calls only. 290,000 tested, 0.27% active. yeast membranes, quenched prenylated peptide cleavage fluorescence;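 active = fall in fluorescence gain of 50% or more versus controls, with final raw signal at or below 3038400; inconclusive = same 50% fall but final raw signal above 3038400; inactive = fall in fluorescence gain under 50%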;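 also: plate controls were neutral control wells for no effect and wells lacking membranes for full effect; tested at 10 µM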
Target sequence (Q03530 whole entry, looked up): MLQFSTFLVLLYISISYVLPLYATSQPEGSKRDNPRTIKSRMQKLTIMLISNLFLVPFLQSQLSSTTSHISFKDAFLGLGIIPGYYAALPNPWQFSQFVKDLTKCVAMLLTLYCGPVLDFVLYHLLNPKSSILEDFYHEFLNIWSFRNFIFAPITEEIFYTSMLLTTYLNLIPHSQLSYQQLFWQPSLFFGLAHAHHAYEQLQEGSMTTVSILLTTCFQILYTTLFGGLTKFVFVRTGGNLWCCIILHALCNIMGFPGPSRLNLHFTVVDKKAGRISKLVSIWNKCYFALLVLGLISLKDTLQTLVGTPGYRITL
PABP FP inh: PABP-poly(A) binding inhibition; PABP-poly(A) RNA binding, fluorescence polarization; inhibition, % at 35 µM; 290,000 tested, 1% active;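 active = 50% or more with normal probe brightness, or confirmed in later tests; inconclusive = above 50% with abnormal brightness, or retests that disagree; inactive = below 50% or failed in later tests; about a fifth of its hits are not listed in these tables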;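 also: calls also rest on retests at 20 µM and on dose response follow-up; controls were probe without protein and protein plus probe with vehicle; some compounds called inactive have numbers as strong as hits; many hits fall short of the cut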
Target sequence (P11940 whole entry, looked up): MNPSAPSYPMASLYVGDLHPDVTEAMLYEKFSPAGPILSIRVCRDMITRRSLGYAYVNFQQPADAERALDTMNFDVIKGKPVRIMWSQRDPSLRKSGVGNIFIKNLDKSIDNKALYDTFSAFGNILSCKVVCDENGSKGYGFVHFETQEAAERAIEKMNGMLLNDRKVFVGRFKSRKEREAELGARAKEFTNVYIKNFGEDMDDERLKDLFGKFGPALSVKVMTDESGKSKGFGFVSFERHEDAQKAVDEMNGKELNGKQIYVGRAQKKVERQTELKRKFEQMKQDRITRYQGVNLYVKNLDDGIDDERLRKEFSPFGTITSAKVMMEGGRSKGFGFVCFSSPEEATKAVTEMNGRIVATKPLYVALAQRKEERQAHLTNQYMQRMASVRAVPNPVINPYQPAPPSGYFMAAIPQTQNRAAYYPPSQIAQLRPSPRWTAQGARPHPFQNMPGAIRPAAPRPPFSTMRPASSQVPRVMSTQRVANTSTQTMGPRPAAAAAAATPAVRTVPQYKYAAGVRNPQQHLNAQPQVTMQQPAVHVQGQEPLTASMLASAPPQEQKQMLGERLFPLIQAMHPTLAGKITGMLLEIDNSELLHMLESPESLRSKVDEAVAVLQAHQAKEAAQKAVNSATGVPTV
MT1-MMP act inh: blocks activation of human MT1-MMP; HT1080 RFP-PRO-GFP cells, GFP/RFP ratio fluorescence, overnight; percent of plate control window, DMSO zero; 360,000 tested, 0.061% active; GFP/RFP ratio change, % at 20 µM; AID 651647; P50281;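 active = GFP/RFP ratio change of at least 30% with cell ATP level not reduced by more than half and red fluorescence within 50% of control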; also: strong numbers were not always called active
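Assay system – RFP-PRO-GFP reporter HT1080 cells · Compound dosing – single dose of 20 µM compound, 1% DMSO final · Incubation – overnight compound exposure at 37 °C · Measure – GFP/RFP fluorescence ratio · Benchmarks – DMSO wells and RFP-L50D-GFP cells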
MT1-MMP act inh RFP: also measured in MT1-MMP act inh; calls as there; RFP signal change, %; measured here: RFP expression control read;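 0 = vehicle wells; hits needed this value within 50% of zero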
Active calls of the source: *; i = inactive; ? = inconclusive; . = no result given; + = active, no number; & = joins results of further samples; [ ] = dose if it differs, or a comment.

Compound	UUG fidelity	Env fusion inh	CSC inhib	eIF4H FP inh	Rce1 inh	PABP FP inh	MT1-MMP act inh	MT1-MMP act inh RFP
CCCCCSc1nc(N2CCOCC2)c2c(c1C#N)CC(C)(C)OC2	-7	28	-10	-2	i	3	-6	-9
Cc1ccc2cc(/C=N/Nc3ccc(C(=O)O)cc3)c(Cl)nc2c1	.	-270	15	2	i	12	12	10
C[C@H](CO)N1C[C@H](C)[C@@H](CN(C)Cc2ccncc2)Oc2c(NC(=O)c3ccncc3)cccc2C1=O	-16&-7	-3[16.7 µM]	-2	.	.	.	1	4
O=C(c1ccc(Cn2cnnn2)cc1)N1CCCC(Nc2ccc(F)cc2)C1 (stereo unspecified)	-13	-2	7	1	+	0	-3	-3
CCOC(=O)c1cn(C2CC2)c2c(F)c(NCCCN(C)C)c(F)cc2c1=O	-10	5	1	.	i	.	-2	-3
O=C1NC(Cc2ccc(O)cc2)c2nc3cc(F)c(F)cc3c(=O)n2-c2cc3ccccc3cc21 (stereo unspecified)	-26	10	.	.	.	.	-7	-7
Cc1ccc(S(=O)(=O)N(CC(=O)NCCSC2CCCCC2)c2ccccc2F)cc1	-4	-1	-3	-8	i	5	-3	-6
O=C(CSc1n[nH]c(=O)[nH]c1=O)c1cccc([N+](=O)[O-])c1	-11	-12	2	-6	i	8	0	0
Cc1ccc(S(=O)(=O)N2CCN(CC(=O)Nc3ccc([N+](=O)[O-])cc3)CC2)cc1C	.	24	2	-3	i	-8	-1	-7
CCN(CC)C1CCN(C(=O)c2ccc(OC3CCN(C(=O)CCOC)CC3)cc2)C1 (stereo unspecified)	-18	-2	.	.	.	.	2	4
c1ccc(COc2ncnc3c2ncn3CCCN2CCN(c3ccccn3)CC2)cc1	-11	9	.	.	.	.	3	-5
CN1CCN(CC(O)COC(c2ccc(Cl)cc2)c2ccc(Cl)cc2)CC1 (stereo unspecified)	-4	3	7	-6	i	-9	-3	-1

Carrying on:
Compound	UUG fidelity	Env fusion inh	CSC inhib	eIF4H FP inh	Rce1 inh	PABP FP inh	MT1-MMP act inh	MT1-MMP act inh RFP
O=C(Nc1ccccc1-c1ccccc1)c1cccc(C(F)(F)F)c1	.	-22	-3	-2	i	-2	4	8
C=C(C)CNC(=S)N/N=C(\C)c1ccc(-n2ccnc2)cc1	-23	6	.	-4	i	-9	9	3
CCS(=O)(=O)n1nc(-c2ccccc2)nc1SC	-9	.	-1	-2	i	35	-3	-1
CC(C)COc1ncnc2c1sc1nc3c(cc12)COC(C)(C)C3	.	.	-13	4	i	1	.	.
O=C(COc1ccc(Cl)cc1)Nc1ccc(NC(=O)c2ccco2)cc1	.	8	-4	-10	i	-8	2	5
CCC1(C)Cc2ccccc2-c2[nH]c(=S)[nH]c(=O)c21 (stereo unspecified)	-18	-9	-12	-6	i	1	2	-1
COc1ccccc1NC(=O)CCn1c(=S)oc2ccccc21	8	-5	3	-6	i	-6	-1	0
C/C(Cl)=C\COc1cc(C)nc2c(Br)cccc12	.	12	-5	-15	i	-10	1	-4
O=C(O)c1ccccc1C(=O)c1ccc(N2CCCC2)c([N+](=O)[O-])c1	.	0	-12	2	i	-11	-3	-2
O=C(CSc1nc2c(cnn2-c2ccc(F)cc2)c(=O)[nH]1)Nc1nccs1	-18	15	7	-12	i	9	12	4
Cc1cc(C)n2nc(C(=O)N(C)c3c(N)n(Cc4ccccc4)c(=O)[nH]c3=O)nc2n1	-14	.	-11	.	i	.	1	6
Cc1ccc(CNC(=O)[C@H](Cc2ccccc2)NC(=O)c2ccco2)cc1	-8	-3	-4	.	.	.	-2	2

(list continues)
Compound	UUG fidelity	Env fusion inh	CSC inhib	eIF4H FP inh	Rce1 inh	PABP FP inh	MT1-MMP act inh	MT1-MMP act inh RFP
Cc1ccccc1OCC(=O)N1CCC2(CC1)CC(=O)c1ccccc1O2	.	3	-11	.	i	.	-5	-4
O=C(/C=C/c1ccc(F)cc1)Nc1cc(S(=O)(=O)N2CCOCC2)ccc1N1CCCC1	-16	-16	7	17	i	-32	-1	-6
C#CCN(C[C@@H]1[C@@H](OC(=O)NCC2CCCCC2)[C@@H](OC(=O)NCC2CCCCC2)CN(C(=O)OC(C)C)N1C(=O)OC(C)C)S(=O)(=O)c1ccc(C)cc1	-5	?	.	.	.	.	-15	-17
CCOC(=O)c1cc2sc(C)cc2n1CC(=O)Nc1ccc2c(c1)OCCO2	-13	.	-1	-6	i	-22	1	4
COc1ccc(C2C(C(C)=O)=C(O)C(=O)N2C)c(OC)c1 (stereo unspecified)	9	.	-11	1	i	10	13	1
CCC1NC(C(=O)O)Cc2c1[nH]c1ccccc21 (stereo unspecified)	0	.	-5	.	i	.	0	3
Cc1cc(C(=O)CSc2nc3ccccc3n2C)c(C)n1C	.	.	-7	-5	i	15	0	2
CCOC(=O)c1ccccc1NC(=O)COC(=O)CCNS(=O)(=O)c1cccs1	3	-4	.	.	.	.	1	6
COCCn1c(C)cc(C(=O)CSc2nc3ccccc3c(=O)n2Cc2ccco2)c1C	-6	.	14	26	i	13	8	-14
Cn1c(Cc2ccccc2)nnc1SCC(=O)NC1CCCC1	-19	0	6	-2	i	9	6	6
CN(c1ccccc1)S(=O)(=O)c1cccc(C(=O)OCC(=O)Nc2ccc3[nH]c(=O)[nH]c3c2)c1	.	-2	2	.	i	.	1	3
Cc1ccn(C(=O)c2cc3cc(Cl)ccc3oc2=O)n1	-8	-73	-15	-4	i	-4	-2	1

Next records follow:
Compound	UUG fidelity	Env fusion inh	CSC inhib	eIF4H FP inh	Rce1 inh	PABP FP inh	MT1-MMP act inh	MT1-MMP act inh RFP
CN1CCN(C(=O)c2ccc(COc3ccc(C(C)(C)C)cc3)o2)CC1	-1	.	26	-4	i	-2	8	1
CNC(=O)COC(=O)/C=C/c1c(C)nn(-c2ccccc2)c1C	.	0	-6	0	i	-10	0	4
COC(=O)c1ccc(N2NC(=O)/C(=C/c3ccc(OC)c(OC)c3)C2=O)cc1	-8	-18	-3	-4	i	-2	-6	-1
CCC(=O)Oc1ccc(-c2cnc3ccccc3n2)cc1	-48	.	11	-4	.	5	4	-1
CCOc1ccc(OCCOc2cccc(C(F)(F)F)c2)cc1	-5	.	17	-8	i	2	6	1
COc1nsnc1NS(=O)(=O)c1ccc(NC(=S)NC(=O)c2ccncc2)cc1	.	-4	13	-9	i	5	-8	-6
O=C(NC1C=CS(=O)(=O)C1)c1sc2ccccc2c1Cl (stereo unspecified)	-12	.	8	3	i	6	2	-5
O=c1[nH][nH]cc1C=Nc1ccccc1Cl	.	5	-7	0	i	-12	1	4
COC(=O)N/N=C/c1ccc([N+](=O)[O-])o1	0	-53	-14	?	i	-2	-14	-6
CCOC(=O)c1sc2nc3c(cc2c1N)COC(C)(CC)C3 (stereo unspecified)	-29	-243	-6	2	i	2	4	11
CCOC(=O)C1(C)CCCN1C(=O)c1ccc(OC)c(F)c1 (stereo unspecified)	9	17	.	.	.	.	1	4
CCCCn1c(SCC(=O)Nc2cc(C)on2)nc2cc(S(N)(=O)=O)ccc21	-10	5	.	.	.	.	0	2

(listing goes on)
Compound	UUG fidelity	Env fusion inh	CSC inhib	eIF4H FP inh	Rce1 inh	PABP FP inh	MT1-MMP act inh	MT1-MMP act inh RFP
COc1cc(NC(=O)COc2ccccc2[N+](=O)[O-])ccc1NC(=O)c1ccco1	-2	-34	4	24	i	10	3	6
CC(C)CN(C(=O)CC(C)c1ccccc1)c1c(N)n(Cc2ccccc2)c(=O)[nH]c1=O (stereo unspecified)	.	52	8	.	i	.	-1	-7
Cc1ccc(NC(=O)Cn2c3ccc(F)cc3c3nc4n(c(=O)c32)CCS4)cc1F	-7	-3	11	7	i	-6	-7	-13
Cc1ccc2c(c1)N(CC(=O)NCC1CCCO1)C(=O)C(C(C)C)O2 (stereo unspecified)	6	9	.	-15	i	-2	-5	-5
COc1ccc(Cl)cc1-c1cc(C(=O)NCc2cccc(Cl)c2)[nH]n1	-18	-2	.	.	.	.	-5	-9
COc1ccc(/C=N/NC(=O)c2cccc(NC(=O)c3ccccc3)c2)c(C(=O)O)c1OC	.	-4	0	2	i	36	2	5
S=c1[nH]c(-c2ccccc2)cn1/N=C/c1ccncc1	-28	5	-18	-4	i	-1	-6	-4
CCCn1c(=O)c(C(=O)NCc2ccc(OC)c(OC)c2)c(O)c2ccccc21	-13	.	27	-4	i	3	6	2
Cc1cnc(N2C(=O)c3ccc([N+](=O)[O-])cc3C2=O)s1	.	-5	.	-10	i	-2	4	6
O=C(Cc1ccc(NS(=O)(=O)c2ccc(F)cc2)cc1)NCc1cccnc1	-15	1	-2	-14	i	-3	1	4
O=C(NCc1ccccc1)c1cccc(COc2ccccc2Cl)c1	6	-172	3	-1	i	8	-2	-2
O=C(Nc1ccc(Cl)c(S(=O)(=O)N2CCOCC2)c1)c1ccc(OCC2CCCO2)cc1 (stereo unspecified)	.	.	-1	-8	.	12	-19	-24

Next compounds follow.
Compound	UUG fidelity	Env fusion inh	CSC inhib	eIF4H FP inh	Rce1 inh	PABP FP inh	MT1-MMP act inh	MT1-MMP act inh RFP
CCn1c(NC(=O)C(C)C)c2ccccc2nc1=O	.	-10	2	2	i	14	-1	2
Cc1cccc(C)c1NC(=O)c1ccc2c(c1)CCN2S(C)(=O)=O	5	10	-15	6	i	8	-4	-3
COc1ccccc1/C=N\Nc1cc(C)nc(-n2nc(C)cc2C)n1	.	5	8	-1	i	-14	0	-2
O=C1N(c2ccccc2)C[C@@H]2C[C@@H](c3cccs3)N3CCC[C@@]123	.	-4	-15	0	i	-2	-4	3
CCN(CC)c1ccc(NC(=O)COC(=O)c2cccs2)cc1	-20	-59	-14	2	i	12	5	8
CCOC(=O)c1cnc(SC2CCc3ccccc3C2=O)nc1N (stereo unspecified)	.	-63	-2	-12	i	-12	4	8
Cc1cc(OCCOCCNC(C)C)cc(C)c1Cl	-16	.	3	5	i	2	0	-2
O=S(=O)(NCc1ccccc1)c1ccc(F)cc1Br	-16	-6	21	-10	i	3	-1	0
Cc1ccc(C2C3=C(NCCN=C3c3ccccc3)C(=O)N2c2ccccc2)cc1 (stereo unspecified)	-19	.	6	-11	i	1	1	-6
COc1ccc(C(C)C)cc1S(=O)(=O)N1CCC(C(=O)NCc2cccnc2)CC1	3	2	-9	-9	i	10	-1	-3
O=C(COC(=O)c1ccc(S(=O)(=O)Nc2ccccc2)cc1)NCc1ccco1	-12	-120	8	5	i	2	2	3
O=C(NCc1ccccc1Cl)c1ccc(Cn2cc(C(F)(F)F)ccc2=O)cc1	-18	25	-14	7	i	-3	1	2
